# Screening data (PubChem BioAssay)
# KAT2A inh: GCN5L2 (KAT2A) acetyltransferase inhibition; Potency, µM (doses to about 58.9 µM), inactives show at the highest dose activity change, negative = inhibition, actives largely listed as inhibitors; AID 504327; 390,000 tested, 0.21% active; GCN5L2 HAT assay, ThioGlo1 CoA-SH fluorescence; active = well fitted inhibition curve with a large enough effect; inconclusive = small, poorly fitted or top-dose-only effect, or another doubt; inactive = no such curve, though single readings can be large or run the other way
# Target sequence (Q92830 whole entry, looked up): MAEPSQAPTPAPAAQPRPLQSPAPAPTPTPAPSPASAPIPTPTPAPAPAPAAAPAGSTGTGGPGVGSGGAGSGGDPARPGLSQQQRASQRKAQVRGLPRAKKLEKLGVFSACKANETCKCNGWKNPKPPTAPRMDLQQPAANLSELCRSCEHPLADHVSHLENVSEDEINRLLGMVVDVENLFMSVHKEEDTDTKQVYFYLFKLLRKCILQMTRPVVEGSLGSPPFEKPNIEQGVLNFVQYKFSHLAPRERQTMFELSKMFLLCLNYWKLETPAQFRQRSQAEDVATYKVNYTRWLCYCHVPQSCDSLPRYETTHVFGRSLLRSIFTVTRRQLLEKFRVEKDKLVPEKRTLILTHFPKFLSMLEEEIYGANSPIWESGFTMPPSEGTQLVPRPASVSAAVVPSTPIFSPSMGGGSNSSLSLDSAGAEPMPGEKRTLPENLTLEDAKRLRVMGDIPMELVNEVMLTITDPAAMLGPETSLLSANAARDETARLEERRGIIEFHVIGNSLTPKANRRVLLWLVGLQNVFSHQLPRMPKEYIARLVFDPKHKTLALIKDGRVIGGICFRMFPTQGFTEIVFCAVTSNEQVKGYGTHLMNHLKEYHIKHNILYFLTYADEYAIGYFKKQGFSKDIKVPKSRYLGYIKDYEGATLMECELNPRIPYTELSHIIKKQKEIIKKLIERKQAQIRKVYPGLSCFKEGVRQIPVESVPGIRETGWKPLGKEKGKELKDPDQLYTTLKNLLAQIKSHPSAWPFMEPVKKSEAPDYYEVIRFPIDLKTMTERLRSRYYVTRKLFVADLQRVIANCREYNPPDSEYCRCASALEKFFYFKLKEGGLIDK
#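 ThioGlo1-coupled HAT assay: 20nM GCN5L2, 70uM acetyl-CoA, 75uM H3(1-25) peptide, pH 7.5. Fluorescence read at 340/540nm at start and after 20 min at room temperature.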
# An asterisk follows results filed as active; u = inconclusive; & = joins results of further samples; [ ] = dose if it differs, or a comment. % is set by controls: 0 for no effect and ±100 for the full control effect; potency is the fitted concentration of half-maximal effect. An excerpt, and most or all hits are left out here.
SMILES,KAT2A inh
O=C(CCn1c(=O)oc2ccccc21)Nc1nccs1,0.4%
Cc1ccc(Nc2nnc(SCc3ccccc3)s2)cc1,-7.7%
CCOC(=O)/C(=N\Nc1ccccc1)P(=O)(c1ccccc1)c1ccccc1,-7.1%
COc1cccc(-c2nc(SCC(=O)NCc3ccccc3)c3c(=O)n(C)c(=O)n(C)c3n2)c1,0.1%
FC(F)(F)c1ccccc1NC(=S)N/N=C1\CC2CC=CC12 (configuration not stated),-6.4%
CC(=O)NS(=O)(=O)c1ccc(NC(=O)CN2C(=O)C3C4C=CC(C4)C3C2=O)cc1 (configuration not stated),-1.1%
Cn1c(=O)c2c(Nc3ccc(F)cc3)cc(=O)n(-c3ccccc3)c2n(C)c1=O,-7.4%
COc1ccc(S(=O)(=O)NC(C)(C)C)cc1-c1nnc2c3ccccc3c(C)nn12,2.0%&-0.1%
CN1CCN(C(c2ccc(Cl)cc2Cl)c2sc3nc(-c4ccco4)nn3c2O)CC1 (configuration not stated),-5.7%
C=CCN(CC(=O)NCC1CCCO1)C(=O)CCC(=O)Nc1cc(C)on1 (configuration not stated),-4.1%
COc1ccc(CCNC(=O)CCS(=O)(=O)c2ccc(C)cc2)cc1OC,-1.8%
CCOC(=O)N/N=C/c1c(C)nn(-c2cccc(C(F)(F)F)c2)c1Cl,-23.5%
CCCc1cc(=O)[nH]c(Nc2ccc(C(=O)O)cc2)n1,2.6%
CCC(C)(C(=O)Nc1ccccc1C)N(C(=O)CNC(C)=O)c1ccccc1C (configuration not stated),-3.8%
CCc1ccc2c(c1)c1nc(C)sc1n2CC,-3.0%

# 4 entries from above, bar-delimited:
smiles | KAT2A inh
CCCc1cc(=O)[nH]c(Nc2ccc(C(=O)O)cc2)n1 | 2.6%
CCC(C)(C(=O)Nc1ccccc1C)N(C(=O)CNC(C)=O)c1ccccc1C (configuration not stated) | -3.8%
Cc1ccc(Nc2nnc(SCc3ccccc3)s2)cc1 | -7.7%
COc1cccc(-c2nc(SCC(=O)NCc3ccccc3)c3c(=O)n(C)c(=O)n(C)c3n2)c1 | 0.1%

# Next section.
SMILES,KAT2A inh
CC(C)CCNC(=O)NC(=O)COC(=O)C1CCN(S(=O)(=O)c2ccccc2F)CC1,34.5%[activator]
CN(C)c1ccc(/C=N/NC(=O)C(O)(c2ccccc2)c2ccccc2)o1,-21.0%
CCN(CC)S(=O)(=O)c1ccc(N2CCOCC2)c(NS(=O)(=O)c2cc(C(C)(C)C)ccc2C)c1,-1.8%
Cc1ccc(CSc2nc3cccnc3n2Cc2ccc(C(=O)NC3CC3)cc2)cc1,-3.6%
Cc1cc(/C=N/NC(N)=O)c(C)c(CO)c1,-7.2%
Cc1cccc(CNC(=O)c2ccc(Cn3c(SCc4cccc(F)c4)nc4cccnc43)cc2)c1,-13.9%
CCC(=O)Nc1cc(C(=O)OCC(=O)c2ccccc2Cl)ccc1C,-13.4%
CCOc1ccc(/C=C/c2nc(C#N)c(NCc3ccc(OC)cc3)o2)cc1,0.3%
c1ccc(-n2cc(CN3CCCC(CN4CCCC4)C3)c(-c3ccc4c(c3)OCO4)n2)cc1 (configuration not stated),-25.5%
Nc1cccnc1Oc1ccccc1F,-7.6%
COc1cccc(N2CCN(C3=NS(=O)(=O)C(c4ccc(C)cc4)=C3C)CC2)c1,-3.1%
CC(C)(C)c1ccc(C(=O)NCCC(=O)N2CCN(c3ncccn3)CC2)cc1,-14.4%
Cc1nn(-c2ccccc2)c(-n2cccc2)c1C(=O)O,0.2%
COc1ccc(NC(=O)C2CCCN2C(=O)Nc2ccccc2)cc1OC (configuration not stated),2.2%
CC(C)(C)OC(=O)N1CCC(c2c(C(=O)NCc3ccco3)cnn2-c2ccccc2Cl)CC1,-5.0%

# Shown with tabs: entries from further up.
Compound	KAT2A inh
CC(C)CCNC(=O)NC(=O)COC(=O)C1CCN(S(=O)(=O)c2ccccc2F)CC1	34.5%[activator]
CC(C)(C)OC(=O)N1CCC(c2c(C(=O)NCc3ccco3)cnn2-c2ccccc2Cl)CC1	-5.0%
CCOc1ccc(/C=C/c2nc(C#N)c(NCc3ccc(OC)cc3)o2)cc1	0.3%
CC(C)(C)c1ccc(C(=O)NCCC(=O)N2CCN(c3ncccn3)CC2)cc1	-14.4%
CCN(CC)S(=O)(=O)c1ccc(N2CCOCC2)c(NS(=O)(=O)c2cc(C(C)(C)C)ccc2C)c1	-1.8%

# (list continues)
SMILES,KAT2A inh
CCc1ccc(OS(=O)(=O)c2cn(C)c(=O)n(C)c2=O)cc1,1.3%
CCc1ccccc1NC(=O)CN1CCN(CC(=O)NCc2ccc(Cl)cc2)CC1,-3.6%
Cc1cccnc1NC(=S)Nc1ccc(Br)cc1Cl,1.4%
CSc1ccc(-c2nc(CN(C)C3CCOC3)c(C)o2)cc1 (configuration not stated),-7.4%
COc1cc(/C=C2\SC(=Nc3ccc(O)cc3)NC2=O)cc(OC)c1OC,0.0%
CN(C(=O)COC(=O)CSc1cc(Cl)ccc1Cl)c1c(N)n(Cc2ccccc2)c(=O)[nH]c1=O,4.8%
O=C(Nc1ccccc1N1CCOCC1)c1cccc([N+](=O)[O-])c1,1.0%
O=C(NCC(c1ccco1)N1CCCC1)c1ccc(S(=O)(=O)Nc2ccc(F)cc2)cc1 (configuration not stated),-1.1%
COc1ccc(-c2cc(C(=O)N3CCN(C(=O)c4ccccc4F)CC3)[nH]n2)cc1,-3.5%
COc1ccc(OCC(=O)Nc2cc(-c3nc4ccccc4o3)ccc2Cl)cc1,-5.5%
Cc1ccc(NC(=O)c2cccc(NC(=O)N3CCSc4ncccc43)c2)cc1Cl,-5.8%
COc1cc(NC(=S)N2CCN(S(=O)(=O)c3ccc(C)cc3)CC2)cc(OC)c1,1.7%
CC1Cc2ccccc2N1C(=O)COC(=O)c1cc(Br)ccc1O (configuration not stated),-21.4%
CCN(CC)CCn1c(NS(=O)(=O)c2ccc(C)cc2)nc2ccccc21,-5.9%
Cc1cccc(NC(=O)c2cc(S(=O)(=O)NCc3ccco3)ccc2F)c1C,-7.7%
Cc1cccc2cc(C#N)c(SCC(=O)NNC(=O)Cc3ccccc3)nc12,0.7%
COC(=O)NCC(C)OC(=O)Nc1ccc(Cl)cc1 (configuration not stated),-3.3%
COc1ccccc1C(=O)NC(=S)Nc1ccc(S(=O)(=O)N2CCN(C)CC2)cc1,-3.9%
CNC(=O)/C(=C\C=C\c1ccccc1)NC(=O)c1ccc([N+](=O)[O-])cc1,1.4%
Cc1ccc(CNC(=O)C2CCCN(c3nn4cc(-c5ccc(C)cc5)nc4s3)C2)cc1 (configuration not stated),2.3%
COc1ccc([C@H]2CC(=O)C=C(c3ccc4c(c3)sc3ccccc34)C2)cc1,0.6%
COc1ccc(NCc2nnc(SCC(=O)N3CCCc4ccccc43)o2)cc1,-5.8%
O=C(COC(=O)CCSc1ccc(Cl)cc1)NCc1ccccc1Cl,-2.9%
Cc1cc(C(=O)COC(=O)C2COc3ccccc3O2)c(C)n1CC1CCCO1 (configuration not stated),-11.8%
CC(=O)C1=C(O)C(=O)N(c2ccc(C(=O)O)cc2)C1c1ccc([N+](=O)[O-])cc1 (configuration not stated),-7.8%
CCC(=O)Nc1nc(C)c(C(=O)N2CCCCC2)s1,-4.4%
O=C(c1ccc(OC2CCN(Cc3cccc(F)c3)CC2)cc1)N1CCCCC1,u
CC(C)(C)N(Cc1ccccc1)C(=O)COC(=O)c1ccc([N+](=O)[O-])o1,1.0%
COC(=O)Nc1nc2ccc(C(=O)c3cccs3)cc2[nH]1,-5.3%
CCN(CC)S(=O)(=O)c1cccc(C(=O)N/N=C/c2ccccn2)c1,2.8%
CC(=O)c1cccc(NS(=O)(=O)c2ccc(-c3cc(C)no3)s2)c1,-7.7%
COc1ccc(NC(=O)Nc2ccccc2C(=O)N2CCCC2)cc1,-10.1%
O=C(NNC(=O)c1ccccc1OCc1ccc(F)cc1)c1ccncc1,3.2%
O=C(NCc1ccccc1Cl)c1cc(=O)[nH]c2ccc(S(=O)(=O)N3CCCCC3)cc12,-4.1%
CCN(C[C@H]1N[C@@](Cc2ccccc2)(C(=O)OC)[C@H]2C(=O)N(C)C(=O)[C@@H]12)C(=O)Nc1ccc(Cl)cc1,-0.8%
COc1ccccc1OCCCn1c(=O)oc2ccccc21,-5.8%
COc1ccc(CCCO[C@@H](Cn2ccnc2)c2ccc(OC)cc2)cc1,-21.7%
COc1ccc2nc(N)sc2c1,8.5%
Cc1cc(=O)oc2cc(OCC(=O)N3CCC(O)CC3)c(Cl)cc12,-18.0%
CC(C)CC(NC(=O)OC(C)(C)C)c1cn([C@@H](Cc2ccc(O)cc2)C(=O)N2CCN(C(=O)OC(C)(C)C)CC2)nn1 (some centres not stated),3.3%
COc1ccc2cc3cc(C(=O)Nc4ccccc4C)oc3nc2c1,-13.1%
CC(=O)OC(Cn1nc(C)cc1C)c1ccccc1 (configuration not stated),-7.6%
O=S(=O)(c1ccc(Cl)cc1Cl)n1ccc2cccnc21,-10.1%
O=C(CNc1ccccc1Cl)N/N=C1\CCCc2ccccc21,-2.8%
O=C(c1cccnc1)N1CCN(C(=O)c2cccs2)CC1,0.0%
COc1ccc(CC(=O)NCC(=O)N/N=C(/C)c2ccco2)cc1,-0.9%
COc1ccc(S(=O)(=O)Nc2ccc(-c3ccc(N4CCCC4)nn3)cc2)cc1F,-4.7%
COCCNC(=S)Nc1cc(OC)c(OC)cc1C#N,-5.7%
COc1ccc(C2CC(=O)C=C(O)C2)cc1 (configuration not stated),2.0%
CCOc1ccc(NC(=O)N2CCC(CN3CCc4ccccc4C3)CC2)cc1,0.6%
COc1ccc(OC)c(CNC(=O)c2ccc(-c3nc(CSc4ccccc4)c(C)o3)cc2)c1,-4.4%
COc1ccc(C(=O)NCC(=O)OCC(=O)NC23CC4CC(CC(C4)C2)C3)cc1,-1.1%
Cc1ccc(C(=O)Nc2c(-c3cccs3)nc3cc(C)ccn23)cc1,-1.2%
O=C(Nc1ccc2sc3ccccc3c(=O)c2c1)c1ccccc1Cl,-12.2%
O=C(NCCCn1ccnc1)c1cc2c(s1)CCCCC2,u
Cc1cc(NC(=O)COC(=O)C(Nc2ccc(C(F)(F)F)cc2Cl)C(C)C)no1 (configuration not stated),u
Nc1c(Nc2ccccc2)c2ccccc2oc1=O,-4.7%
Cn1c(=O)c(C(=O)CN2CCN(Cc3ccc4c(c3)OCO4)CC2)c(N)n(Cc2ccccc2)c1=O,1.2%
COc1ccc(CCNC(=O)CSc2nnnn2-c2ccccc2OC)cc1OC,-4.3%
CN(Cc1cccc(F)c1)CC(O)COCc1ccccc1Cl (configuration not stated),-1.3%

# (list continues)
SMILES,KAT2A inh
CCOC(=O)c1c(S(=O)(=O)N2CCC(C(=O)Nc3cccc(C)n3)CC2)c(C)n(C)c1C,-2.3%
CC1CCCCN1C(=O)CN1C(=O)c2ccccc2S1(=O)=O (configuration not stated),1.2%
CC(C)=CCc1c2c(c3occ(-c4ccc(O)cc4)c(=O)c3c1O)C=CC(C)(C)O2,-17.1%&-28.2%
O=C(CN1CCC(C(=O)c2cccc(Cl)c2)CC1)Nc1cccc(C(=O)O)c1,1.8%
COc1cccc(C(=O)NNC(=O)c2ccccc2Br)c1,-5.3%
CCOc1ccc(CC(=O)Nc2ccc(-c3ccc4nnc(C)n4n3)cc2)cc1,-22.8%
Cc1cc(=O)oc2cc(OCCC[n+]3ccccc3)ccc12,-14.7%
COc1ccc(CNC(=O)C2COc3ccccc3O2)cc1 (configuration not stated),2.8%
CCOC(=O)c1c(NC(=O)CS(=O)(=O)c2cn(CC)c3ccccc23)sc2c1CCCC2,-6.7%
Cc1cc(O)ccc1N/C=C1\CCCC1=O,-0.7%
O=C(CSc1ncnc2c1nnn2Cc1ccccc1)NC1CCCCC1,-3.5%
O=C(NCc1ccc2c(c1)OCO2)Nc1ccc(Cl)cc1,0.7%
COc1ccc(CC(NC(C)=O)C(=O)NC2CCN(S(=O)(=O)c3ccc(NC(C)=O)cc3)CC2)cc1 (configuration not stated),-5.3%
CC1CCN(C(=O)c2ccc(N(C)S(C)(=O)=O)cc2)CC1,-0.3%
N#Cc1cc(Oc2ccccc2)c(-n2nnc3ccccc32)cc1C#N,-7.2%
CCc1nc(SCC(=O)OC(C)C)c2ccccc2n1,-1.3%
O=C(CCC1CCCCC1)NCCS(=O)(=O)N1CCN(c2ccc(F)cc2)CC1,2.3%
CCCC12CN3CC(CCC)(CN(C1)C3c1c(C)[nH]c(=O)[nH]c1=O)C2=O (configuration not stated),1.5%
O=C(Nc1ccccc1Br)c1ccc(N2CCCC2=O)cc1,2.4%
O=C(Nc1ccc2c(c1)OCO2)c1ccc(CO)cc1,1.6%
O=C(c1cc2ccccc2o1)N1CCN(S(=O)(=O)c2cccs2)CC1,-3.5%
Cc1ccc(Oc2c(C)nc(-c3ccccc3)[nH]c2=O)cc1,-0.2%
CC(C)(C)NS(=O)(=O)c1ccc(NC(=O)Cc2ccccc2[N+](=O)[O-])cc1,-1.6%
CCOC(=O)c1ccc(OC(=O)CCCCCN=C(N)N)cc1,-18.0%[0.501 µM]
COCCCNC(NC(=O)c1ccc(Br)cc1)C(Cl)(Cl)Cl (configuration not stated),-1.3%
COc1ccc(C(=O)Cn2nnc(-c3ccccc3F)n2)cc1,-7.5%
O=C(NC(=S)NCC1CCCO1)c1cccc([N+](=O)[O-])c1 (configuration not stated),0.0%
CN(CC(=O)Nc1ccc(N2CCOCC2)cc1)C(=O)c1cc(S(=O)(=O)N(C)C)ccc1Cl,-6.5%
O=S(=O)(NC1c2cccc3cccc(c23)C1N1CCNCC1)c1ccccc1 (configuration not stated),1.6%
COC(=O)c1cc(OC)nc2ccc(Br)cc12,-1.5%
CCc1ccc(NC(=O)CCN2C(=O)c3cccnc3C2=O)cc1,-52.4%
COc1ccc(S(=O)(=O)N(C)c2ccc(C(=O)Nc3ccccc3C(=O)N3CCOCC3)cc2)cc1,-19.6%
CCCCN(C)S(=O)(=O)c1ccc(C(=O)Nc2ccc(-c3nc4ccc(C)cc4s3)cc2)cc1,7.6%
